# HPGD inh: inhibitors of human 15-hydroxyprostaglandin dehydrogenase (HPGD); purified HPGD, NADH fluorescence kinetic, PGE2 substrate; Potency, µM, without a hit: at the top dose activity change, negative = inhibition, usual class: inhibitors; 4.3% of 150,000 active; active = well fitted inhibition curve with a large enough effect (not every such curve was filed as active); inconclusive = small, poorly fitted or top-dose-only effect, or another doubt; inactive = no such curve, though single readings can be large or run the other way;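 note: top concentration of the series not given in the record; plate controls included wells without enzyme; inactives centre near -10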
# Target sequence (P15428 whole entry, looked up): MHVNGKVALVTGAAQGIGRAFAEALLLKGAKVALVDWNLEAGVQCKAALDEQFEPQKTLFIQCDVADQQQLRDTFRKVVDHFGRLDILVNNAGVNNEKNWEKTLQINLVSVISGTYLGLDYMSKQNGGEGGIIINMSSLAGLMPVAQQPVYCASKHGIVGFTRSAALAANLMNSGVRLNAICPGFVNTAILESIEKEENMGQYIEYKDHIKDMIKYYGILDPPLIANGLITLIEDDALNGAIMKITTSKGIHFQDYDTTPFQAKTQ
#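 20 nM HPGD preincubated 15 min at room temperature with compound in 50 mM Tris-HCl pH 8, 0.01% Tween 20. Started with 1 mM NAD+ and 30 uM prostaglandin E2; NADH fluorescence (360/450 nm) read 5 times over 30-s intervals, last minus first.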
# Starred values were filed as active, the others as inactive; ? = inconclusive; & = joins results of further samples. % is set by controls: 0 for no effect and ±100 for the full control effect; potency is the fitted concentration of half-maximal effect.
HPGD inh	structure
2%	COc1cc(C(N)=O)ccc1OCc1ccccc1
5%	N#Cc1c2ncn(CC(=O)c3ccc(Br)cc3)c(=O)c2c2n1CCC2
-5%	Cc1ccc(C)c(NC(=O)CSc2nnc(C)c(=O)n2N)c1
-5%	C[C@H]1Cc2c(COc3ccccc3)nc3c(c2CO1)CN(C(=O)Cc1cccs1)CC3
-8%	CCOC(=O)Cc1csc(NC(=O)CCCN2C(=O)c3ccccc3C2=O)n1
-23%	CCOC(=O)Cn1c(=O)cnc2ccccc21
-25%	CCCSc1nc(O)c(C(c2ccc(OC)c(O)c2)c2c(O)nc(SCCC)n(C)c2=O)c(=O)n1C
13µM*	O=C(Nc1ccc(Cl)cc1)N1CCCN(Cc2ccccc2F)C1
-8%	Cn1c(SCC(=O)CC(=O)Nc2ccccc2)nnc1-c1ccc(O)cc1
-1%	COc1ccc(N2CCN(/C(=N\S(=O)(=O)c3ccc(C)cc3)Nc3nc(C)cc(C)n3)CC2)cc1
18µM*	S=C(NCc1ccc(Cl)cc1)Nc1ccccc1
?	CCn1c(N)c(C(N)=O)sc1=S
5%	COc1ccc(CN2CC(C(=O)NCCCN3CCCCCC3)CC2=O)cc1 (stereo unspecified)
-30%	O=Cc1cc2ccccc2nc1SCc1ccc(Cl)c(Cl)c1
-26%	COc1ccc(CNc2ncncc2-c2ccc3c(c2)OCO3)c(OC)c1
-18%	COc1cc(/C=C(/C#N)C(=O)Nc2ccc(C)cc2)ccc1Oc1nc(Cl)ncc1F
2%	COc1ccccc1N1CCN(C(=O)c2cc(-c3cccs3)on2)CC1
-5%	Cc1cc(C(=O)NCc2cccs2)ccc1[N+](=O)[O-]
?	CSc1oc(-c2ccc(F)cc2)nc1S(=O)(=O)c1ccccc1
-9%	O=C1c2ccccc2C(=O)N1CCCc1nc(-c2ccc(Cl)cc2)no1
-18%	Cc1ccc2nc(C)c(C)nc2c1N
-15%	CC(C)C(NC(=O)c1ccccc1)C(=O)OCc1cc([N+](=O)[O-])cc2c1OCOC2 (stereo unspecified)
-8%	COC(=O)c1ccc(NC(=S)NC(=O)c2cc(-c3ccccc3)nc3ccccc23)cc1
-11%	N#Cc1cccc(NC(=O)N2CC[C@@]3(CCCN(C(=O)c4csnn4)C3)C2)c1
-11%	O=C(NCc1cccnc1)C(=O)NCC(c1ccco1)N1CCN(c2ccccc2F)CC1 (stereo unspecified)
-12%	O=C(CSC1=NCCS1)N1CCN(c2ccccc2)CC1
-15%	O=C(O)CCC(=O)N(Cc1cccs1)Cc1cccs1
20µM*	CCOC(=O)/C(C)=C1\NC(C)(C)Cc2ccccc21
-21%	Cc1ccc(C(=O)N2CCN(C)CC2)cc1S(=O)(=O)N1CCCCC1
-11%	O=S(=O)(c1ccc(Cl)cc1)n1ccc2cccnc21
-12%	COc1ccc(NC(=O)N2CCC(O)(c3cccnc3)CC2)c(OC)c1
-3%	CCN1CCN(Cc2ccc(OC)c(OCc3ccccc3)c2)CC1
-17%	CCCC[C@@H]1C[C@H]1C(NC(=O)c1ccco1)c1ccc(C(=O)OC)cc1 (stereo partly specified)
-8%	CCN(CCCNC(=O)C1CCN(S(=O)(=O)c2cccc3nonc23)CC1)Cc1ccccc1
-3%&-16%&-7%	OC(CCN1CCCCC1)(c1ccccc1)C1CCCCC1 (stereo unspecified)
?	O=C(/C=C\NCC(=O)c1ccccc1)c1ccccc1
?	CCOC(=O)C1=C(CSc2nc(-c3ccccc3)ccc2C#N)OC(N)=C(C#N)C1c1ccc(OC)cc1 (stereo unspecified)
-6%	O=C(O)CCCc1ccc2ccccc2c1
?	Cc1ccc2nc(-c3ccccc3Cl)cc(C(=O)Nc3cc(C)on3)c2c1
-8%	O=C(N/N=C1/CC2C=CCC12)c1ccc(Br)o1 (stereo unspecified)

# Records listed so far marked active in HPGD inh:
HPGD inh	structure
13µM*	O=C(Nc1ccc(Cl)cc1)N1CCCN(Cc2ccccc2F)C1
18µM*	S=C(NCc1ccc(Cl)cc1)Nc1ccccc1
20µM*	CCOC(=O)/C(C)=C1\NC(C)(C)Cc2ccccc21

# The list goes on:
HPGD inh	structure
?	O=C(CNc1ccc(C(F)(F)F)cc1[N+](=O)[O-])OCC(=O)c1ccccc1
-9%	O=C(c1cccc(F)c1)N1CCC2(CCN(Cc3cc(C(F)(F)F)cc(C(F)(F)F)c3)CC2)CC1
-4%	C=CCN=C(NC#N)SCC(=O)NC(C)(C)C
-2%	O=c1cc(N2CCCC2)[nH]c(=O)n1-c1ccc(Cl)cc1
-16%	O=C(N/N=C/c1cc(Br)ccc1O)c1cccc(N2CCCC2=O)c1
?	O=C(O)C(Oc1ccc2c3c(c(=O)oc2c1)CCC3)c1ccccc1 (stereo unspecified)
-10%	NC(=O)c1cc2ccccc2o/c1=N\NC(=O)c1ccco1
-18%	Cc1ccc(C(=O)NN2CCOCC2)cc1
16µM*	COc1ccc(NS(=O)(=O)c2ccc3c(c2)n(C)c(=O)n3C)cc1
-11%	O=C(Nc1ccncc1)c1cccs1
-11%	CCCC1=[N+](CC)CCn2c(C)ccc21
?	Cc1nn(-c2ccccc2)c2c1C(c1cccs1)C(C#N)=C(N)O2 (stereo unspecified)
-24%	CC(C)c1noc2ncc(C(=O)c3cc(Cl)cc(Cl)c3O)cc12
-6%	Cc1cc(C)cc(N(CC(=O)NC2CCC(C)CC2)S(=O)(=O)c2c(C)noc2C)c1 (stereo unspecified)
-7%	COc1ccc(C2/C(=C(/O)c3ccc(Cl)cc3)C(=O)C(=O)N2CCN2CCOCC2)c(OC)c1 (stereo unspecified)
?	Cc1ccc(Cn2ccc(-c3cnc(-c4ccccc4)s3)n2)cc1
-11%	CCN1CCN(C(=O)CN(C)S(=O)(=O)c2ccc(Cl)cc2)CC1
?	Cc1ccc(CNc2ccc3c(c2)OCO3)cc1
-28%	NC1=NC(=Nc2cccc(Cl)c2)c2ccccc21
-8%	CC(=O)Nc1cc(NC(C)=O)cc(C(=O)NC(C)(C)C)c1
-15%	COc1ccc(NC(=O)CSc2ncn[nH]2)c([N+](=O)[O-])c1
?	O=C(N/C(=C\c1ccc(Br)cc1)c1nc2ccccc2[nH]1)c1ccco1
-10%	O=C(C(Cc1ccccc1)n1cccc1)N1CCc2ccccc21 (stereo unspecified)
-13%	N#CC1=C(N)N2C(=C(C#N)C1c1ccccc1)Sc1ccccc12 (stereo unspecified)
-24%	COC(=O)c1cc(=O)[nH]c(SCc2cccc(C)c2)n1
-7%	CCCC[C@@H]1C[C@H]1C(NC(=O)c1ccco1)c1ccc(-c2ccccc2)cc1 (stereo partly specified)
-13%	CN(C)CCN(C(=O)c1cccc(Cl)c1)c1nc2c(Cl)cccc2s1
-22%	COC(=O)C(O)(CC(=O)Nc1ccccc1OC)C(F)(F)F (stereo unspecified)
-10%	COc1cccc(OCCOCCOc2ccc(C)cc2[N+](=O)[O-])c1
-3%	CCOC(=O)c1cccc(C(=O)Oc2ccccc2)n1
-13%	CCCCCCSc1cc(C)nc2ncnn12
?	CC(=O)c1cc2c(cc1N/C(=N/S(=O)(=O)c1ccccc1)c1ccc(Cl)cc1)OCO2
4%	Cc1ccc(C(=O)N/C(=C\c2cccs2)C(=O)NCCc2c[nH]c3ccccc23)cc1C
3%	COc1ccccc1NC(=S)N1CCC(NC(=O)NC23CC4CC(CC(C4)C2)C3)CC1
2%	O=C(Nc1cccc(F)c1)c1ccc(S(=O)(=O)N2CCOCC2)cc1
-13%	CC(C)(C)c1cc(C(=O)NCc2cccnc2)ccn1
-13%	C/C(CCC12CC3CC(CC(C3)C1)C2)=N\NC(N)=S
-5%	Cc1cccc(OCC(=O)NCC(=O)n2nc(C)cc2C)c1
?	CC(=O)C1=C(O)C(=O)N(c2cccc(C(=O)O)c2)C1c1ccccc1F (stereo unspecified)
-3%	COc1ccc(/C(N)=N/OC(=O)CCCc2ccccc2)cc1OC

# Another view of some results above:
SMILES,HPGD inh
CCCCCCSc1cc(C)nc2ncnn12,-13%
CC(=O)c1cc2c(cc1N/C(=N/S(=O)(=O)c1ccccc1)c1ccc(Cl)cc1)OCO2,?

# Five compounds already listed, arranged by heavy-atom count, largest number first.
HPGD inh	structure
4%	Cc1ccc(C(=O)N/C(=C\c2cccs2)C(=O)NCCc2c[nH]c3ccccc23)cc1C
?	O=C(N/C(=C\c1ccc(Br)cc1)c1nc2ccccc2[nH]1)c1ccco1
-10%	COc1cccc(OCCOCCOc2ccc(C)cc2[N+](=O)[O-])c1
-13%	N#CC1=C(N)N2C(=C(C#N)C1c1ccccc1)Sc1ccccc12 (stereo unspecified)
-24%	COC(=O)c1cc(=O)[nH]c(SCc2cccc(C)c2)n1

# Remaining list, next part:
HPGD inh	structure
1%	O=C(O)CC[C@]1(C(=O)O)CCC(=O)c2ccccc21
3%	COc1ccccc1N1CCN(C(=O)/C=C/c2ccco2)CC1
-9%	CC(=O)c1c(C)[nH]c(C(=O)Nc2c(C)n(C)n(-c3ccccc3)c2=O)c1C
-14%	CCOC(=O)C1C2C=CC3(CN(Cc4ccco4)C(=O)C13)O2 (stereo unspecified)
4%	Cc1ccc(C(=O)NCCCN2CCOCC2)o1
-2%	Cc1nccn1S(=O)(=O)c1cc([N+](=O)[O-])ccc1Cl
-9%	CN1CCCN(C)C1c1cc([N+](=O)[O-])ccc1O
-7%	C[C@@H]1C(=O)O[C@@H]2CC34[C@H]5C[C@@H](C(C)(C)C)C36[C@H](OC(=O)[C@@H]6O)OC4(C(=O)O5)[C@@]12O (stereo partly specified)
-2%	O=C1Nc2ccccc2/C1=C\c1cccn1-c1ccc(OC(F)(F)F)cc1
-6%	O=C(COC(=O)c1cnccn1)c1ccc(Br)cc1
-14%	COc1ccc(OC)c(C2C(C(C)=O)=C(O)C(=O)N2c2ccc(F)cc2)c1 (stereo unspecified)
?	CCn1nnc(-c2ccccc2NC(=O)c2cc(OC)c(OC)c(OC)c2)n1
?	CCOc1ccc2cc(S(=O)(=O)N3CCOCC3)ccc2c1
-17%	Cc1nnc(NCCO)c2ccccc12
?	O=S(=O)(c1cccc(-c2csc(-c3cccnc3)n2)c1)N1CCCCC1
-9%	O=C(Nc1ccc2c(c1)OCCO2)c1ccc(Cl)c(S(=O)(=O)N2CCOCC2)c1
1%	Cc1cccc(C)c1NCc1nnc(SCC(=O)Nc2nc(-c3ccccc3)cs2)n1-c1ccccc1
-7%	COC(=O)C1=C(C(=O)c2ccccc2)C(c2cccs2)n2nnnc2N1 (stereo unspecified)
-4%	CC(O)(C#CCN1CCCC1)c1ccccc1 (stereo unspecified)
-9%	COc1ccc2c(c1)-c1c(ssc1=S)C(C)(C)N2C(=O)CSC1=NCCS1
-15%	Cc1cc2cc(CNC(=S)Nc3ccc(OC(F)F)cc3)ccc2[nH]1
-14%	COC(=O)NC1CSCC1OC(=O)c1ccc(Br)cc1 (stereo unspecified)
2%	CCN(CC)S(=O)(=O)c1ccc(C(=O)NCCCN=C2NS(=O)(=O)c3ccccc32)cc1
1%	CCOc1ccc(NC(=O)NCCCN2CCCC2)cc1
-12%	COc1ccccc1N1CCN(C(=O)c2cc3sccc3n2C)CC1
0%	Clc1cc(Br)ccc1OCCOCCN1CCOCC1
-17%	NC1=NC(=O)/C(=C\c2cccs2)S1
-8%	CN1CCc2c(c3c(n2C)CCN(C)[C@@H]3c2cccnc2)[C@H]1c1cccnc1
-3%	Cc1ccc(CC(=O)O/N=C(\N)Cc2ccc([N+](=O)[O-])cc2)cc1
-9%	O=c1cc(O)n(-c2ccc(Cl)cc2)c(=S)[nH]1
1%	CN(C)CCN1C(=O)c2oc3ccccc3c(=O)c2C1c1ccccc1 (stereo unspecified)
-28%	O=C(NCc1ccco1)c1cccc(NC(=O)c2ccccc2)c1
-10%	CC(C)Oc1ccc(NC(=O)CCC(=O)O)cc1
-13%	NC(=O)NC(=O)COC(=O)c1ccccc1Oc1ccccc1
-9%	COc1ccccc1-c1cncnc1NCc1cccnc1
?	COC(=O)c1ccc(NC(=O)c2cn(-c3ccccc3)nc2-c2ccncc2)cc1
-9%	COc1ccccc1OCCOCCOc1c(C)cc(C)cc1Br
-10%	C=CCn1c(=S)[nH]c2ccc(Br)cc2c1=O
-10%	N#Cc1ccc(OCC(=O)OCC(=O)NCCC2=CCCCC2)cc1
-8%	C=CCn1cc(C(=O)NCCCOC)c(=O)c2cc(S(=O)(=O)N(CC)CC)ccc21
?	Cc1cc(NS(=O)(=O)c2ccc(Nc3nc(-c4ccc(C)c(C)c4)cs3)cc2)no1
-26%	Cc1cccc(Nc2nc(-c3c(C)nc4ccccn34)cs2)c1
-7%	COc1ccc(Cl)cc1C(=O)NCC(c1ccco1)N1CCCC1 (stereo unspecified)
-9%	COc1cc(N=C2C(=O)N3CCCc4cccc2c43)cc(OC)c1
-24%	CC(C(=O)O)N1C(=O)/C(=C/c2cccn2C)SC1=S (stereo unspecified)
-19%	COC(=O)C(C#N)c1nc2ccccc2nc1N1CCCC1 (stereo unspecified)
-15%	CC(=O)c1c(C)[nH]c(C(=O)CSc2nnc(-c3ccco3)n2Cc2ccccc2)c1C
40µM*	Cc1cc2oc(=O)cc(-c3ccccc3)c2c(C)c1-c1sccc1C=O
-20%	COc1ccc(NC(=S)N2CCN(Cc3ccco3)CC2)c(OC)c1
-5%	O=C(OCCCN1C(=O)c2ccccc2C1=O)c1ccco1
-7%	COc1ccc(N(CC(=O)N2CCc3ccccc3C2)S(C)(=O)=O)cc1OC
-8%	O=C(N/N=C\c1cccc(Cl)c1)c1n[nH]c2c1CCCC2
?	COCCNc1nc(-c2ccc(N(C)C)cc2)nc2ccccc12

# Reprinted at random: 3 records from the list, in no set order.
HPGD inh	structure
-7%	COc1ccc(Cl)cc1C(=O)NCC(c1ccco1)N1CCCC1 (stereo unspecified)
-8%	O=C(N/N=C\c1cccc(Cl)c1)c1n[nH]c2c1CCCC2
-19%	COC(=O)C(C#N)c1nc2ccccc2nc1N1CCCC1 (stereo unspecified)

# Screening data deposited in PubChem by National Center for Advancing Translational Sciences (NCATS).

# Some of the compounds tested; the hit share may differ from the screen's.
